Screening results: PubChem, National Center for Advancing Translational Sciences (NCATS)
D2 agonist = activates the human D2 dopamine receptor. AID 624465. P14416. DiscoveRx PathHunter D2 beta-arrestin, luminescence, 90 min; 100% = 57 uM dopamine signal. activation, % (test concentration not listed). 360,000 tested, 0.084% active; in the data active = activation above about 40%; inconclusive = about 15% to 40%; inactive = below about 15%; also: compound concentration not given in the record; the text of the record calls up to 30% inactive
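DiscoveRx PathHunter D2 beta-arrestin cells (2,100/well) attached overnight, then compound-stimulated 90 min at 37 C in HBSS/10 mM HEPES/0.1% Tween-20 buffer; beta-galactosidase complementation read by luminescence after 1 h at ambient temperature. Dopamine 57 uM final (EC100) as control.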
TRPML1 agonist = agonists of human TRPML1 channel; 410,000 tested, 0.12% active; activation, % (no concentration beside the values); Q9GZU1; AID 624414; TRPML1-expressing cells, Ca2+ dye fluorescence, FDSS; host cell line not named in the record; reference of the full effect not given here; in the data active = activation above about 50%; inconclusive = about 30% to 50%; inactive = below about 30%; also: 0% is about no effect; the text of the record puts the active cut at 80%
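Calcium fluorescence on an FDSS kinetic reader gave the read-out. Tet-induced TRPML1-DL cells were plated overnight, dye-loaded (Ca8 with quencher, 45-90 min, room temperature, dark), then read 110 s after compound addition, and again 110 s after 4uM final 54-4 (EC80).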
PINK1 modulator = PINK1 expression modulation | PINK1 immunofluorescence, high-content cytometry, 24 h | Potency, µM (highest dose often 76.6 µM), inactives show at the top dose activation (PINK1 increase), most hits filed as activators | 410,000 tested, 0.2% active | AID 624263; active = well fitted activation curve with a large enough effect; inconclusive = small, poorly fitted or top-dose-only effect; inactive = flat fitted curve, though single readings scatter; cell line not stated here;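 also: potency is read from the fitted curve at half-maximal effect; % of control where 0% means no effect; nearly all actives have a fitted effect of over 65% in size; a mitochondrial uncoupler was the plate control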
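PINK1 protein, normally rapidly degraded, was detected by immunofluorescence after 24 hour compound treatment of a stable cell line. Titration data (5 concentrations) came from laser-scanning cytometry, with CCCP-treated wells as controls.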
CtBP-E1A blk = inhibitors of CtBP/E1A interaction. AlphaScreen GST-E1A/His-CtBP binding, 1536-well; hits give low values; control for the full effect not named in the record. activity change, % (test concentration not listed). 340,000 tested, 0.49% active. AID 651724; in the data active means activity change below about -65%; inconclusive means about -30% to -65%; inactive means above about -30%; also: % is scaled to controls: 0 for no effect and ±100 for the full control effect; compound concentration not given in the record
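GST-E1A and His-tagged CtBP (125 nM each as 5X stock) were preincubated with pin-transferred compound for 2 h at 37 °C in the dark, then glutathione donor and nickel acceptor beads were added for 1 h before AlphaScreen reading.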
Six1-Eya2 inh = Six1/Eya2 interaction inhibition; Q15475+O00167; AlphaScreen GST-Six1/His-Eya2 binding, biochemical; hits give low values; control for the full effect not named in the record; activity change, % (concentration not given with the values); 360,000 tested, 0.56% active; AID 651725; in the data active = activity change below about -65%; inconclusive = about -30% to -65%; inactive = above about -30%; also: % is scaled to controls: 0 for no effect and ±100 for the full control effect
Target sequence (O00167 whole entry, looked up): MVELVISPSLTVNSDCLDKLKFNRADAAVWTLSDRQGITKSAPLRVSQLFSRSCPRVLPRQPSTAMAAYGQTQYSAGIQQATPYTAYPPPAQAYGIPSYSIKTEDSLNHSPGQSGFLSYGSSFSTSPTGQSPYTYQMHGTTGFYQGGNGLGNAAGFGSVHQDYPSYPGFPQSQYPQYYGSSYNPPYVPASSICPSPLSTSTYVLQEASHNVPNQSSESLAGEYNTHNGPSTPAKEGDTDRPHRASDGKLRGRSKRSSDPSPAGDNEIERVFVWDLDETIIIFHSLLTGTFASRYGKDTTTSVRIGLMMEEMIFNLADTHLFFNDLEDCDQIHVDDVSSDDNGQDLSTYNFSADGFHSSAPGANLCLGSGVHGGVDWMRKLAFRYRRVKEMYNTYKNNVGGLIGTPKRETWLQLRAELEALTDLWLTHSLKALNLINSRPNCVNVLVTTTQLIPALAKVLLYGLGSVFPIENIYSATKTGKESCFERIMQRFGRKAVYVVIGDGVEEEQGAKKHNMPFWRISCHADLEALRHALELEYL
Target sequence (Q15475 whole entry, looked up): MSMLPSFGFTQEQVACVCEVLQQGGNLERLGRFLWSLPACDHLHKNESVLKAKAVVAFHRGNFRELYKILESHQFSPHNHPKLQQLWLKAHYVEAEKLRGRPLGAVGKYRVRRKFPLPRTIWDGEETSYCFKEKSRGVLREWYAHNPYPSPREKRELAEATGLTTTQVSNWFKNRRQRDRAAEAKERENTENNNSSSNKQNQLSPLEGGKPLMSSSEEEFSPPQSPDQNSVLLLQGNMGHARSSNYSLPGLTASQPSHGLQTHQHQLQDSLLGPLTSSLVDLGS
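Six1/Eya2 binding was read as AlphaScreen signal after compounds were pinned into GST-Six1 plus His-tagged Eya2 (5X stock 250/500 nM) in pH 8.0 Tris/NaCl/TCEP buffer, beads added, then incubated 1 h, 37 C, dark.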
TRPML1 inh = inhibitors of human TRPML1 channel. Q9GZU1. TRPML1-inducible cells, Ca2+ dye fluorescence, FDSS; hits give low values; inhibition of EC80 agonist-evoked calcium signal. activity change, negative = inhibition, % (concentration not given with the values). 390,000 tested, 0.02% active; in the data active means activity change below about -50%; inconclusive means about -30% to -50%; inactive means above about -30%;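 also: stimulus is agonist 54-4 at its EC80 concentration; % is scaled to controls: 0 for no effect and ±100 for the full control effect; compound concentration not given in the record; the text of the record puts the active cut at -80%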
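Calcium fluorescence in TRPML1-DL cells induced overnight with Tet: a 110 s read after compound pin addition, then a 110 s antagonist read after challenge with 54-4 at 4 uM final (EC80).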
* = called active by the depositor; ? = inconclusive; nt = not tested or not shown; [ ] = another dose, or the depositor's remark.

SMILES	D2 agonist	TRPML1 agonist	PINK1 modulator	CtBP-E1A blk	Six1-Eya2 inh	TRPML1 inh
CCOC(=O)c1ccc2c(c1)N(C)C(=O)c1ccccc1S2	-1.7	nt	0.2%	0.2	-5.8	nt
O=C(NCc1ccccc1Cl)c1ccccc1NC(=O)c1nsc2ccccc12	nt	1.0	1.0%	nt	nt	-23.7
COC(=O)c1ccccc1Sc1snnc1C	-3.9	-0.3	3.0%	0.0	2.8	4.5
COCCn1c(SCC(=O)Nc2ccc(OC)c(S(N)(=O)=O)c2)nc2ccccc21	-3.5	1.1	-0.8%	1.4	2.3	16.0
COc1ccccc1N1CCN(C(=O)/C=C/c2cccc([N+](=O)[O-])c2)CC1	-4.1	2.6	-1.7%	-14.9	-4.1	32.9
COc1ccccc1CCNC(=O)c1cc2c(=O)n3cccc(C)c3nc2n1C	nt	-0.5	1.6%	nt	nt	8.1
CCOC(=O)C1CCCN(C(=O)c2ccc3c(=O)n(CCOC)c(=S)[nH]c3c2)C1 (stereo not drawn)	2.9	-0.4	4.7%[38.3 µM]	8.9	2.8	-8.3
CCOC(=O)C1=C(N)Oc2c(c(=O)[nH]c3ccccc23)C1c1ccccc1 (stereo not drawn)	1.4	0.3	14.2%[38.3 µM]	-14.5	-8.6	3.8
CC(C)(C)n1c(O)c2ccc(C(=O)N=NC(=O)c3ccccc3)cc2c1O	0.2	-0.4	-1.2%	16.7	4.2	4.2
O=C(CC1NC2CCCCC2NC1=O)Nc1ccc2c(c1)OCO2 (stereo not drawn)	-2.3	-0.7	9.1%[38.3 µM]	1.9	0.1	1.0
O=c1[nH]c(=S)[nH]c2c1C(c1ccc(Cl)cc1)OC(CCc1ccccc1)C2 (stereo not drawn)	5.7	-0.5	23.2%	2.4	-10.7	-12.0
O=c1[nH]n(-c2ccc(F)cc2)c2ncccc12	-4.0	-0.3	1.8%	-13.4	-16.4	6.3
CCN(C[C@H]1N[C@@](Cc2ccccc2)(C(=O)OC)[C@H]2C(=O)N(Cc3ccccc3)C(=O)[C@@H]12)C(=O)C1CCCCC1	-2.5	-0.9	1.8%	-13.3	-12.9	14.7
CCOc1cc(CNCc2ccncc2)cc(Br)c1OCc1ccc(F)cc1	-2.3	2.6	-1.0%[38.3 µM]	-0.8	-0.5	20.5
Cc1cccc(C)c1NC(=O)CS(=O)CC(=O)NCCCc1ccccc1 (stereo not drawn)	-2.4	0.8	nt	36.8	20.5	20.0
Cc1ccsc1/C=N/Nc1cccc(C(=O)O)c1	11.7	-0.3	-1.6%	0.8	-2.2	-2.4
O=C(COC(=O)Cc1cccs1)NCc1ccc(F)cc1	-1.2	0.1	0.6%	3.3	5.3	2.2
CCOc1ccccc1NC(=O)CSc1nc2ccccc2nc1N1CCCC1	-6.3	1.2	3.7%	27.0	51.5	-4.8
COc1ccc(CNc2cc(C)ccn2)c(O)c1	-2.3	1.0	0.5%	4.4	-5.3	21.1
Cc1ccc(C(=O)/C=C\Nc2ccc(C)c(C)c2)cc1	1.6	2.6	19.7%	7.3	0.9	11.2
O=C(NCCc1ccccc1)c1noc2c1CCCCC2	-3.3	3.5	7.7%[38.3 µM]	6.9	5.7	13.7
Cn1c(-c2ccncc2)nc2ccccc21	-4.2	-0.8	-1.7%	nt	0.3	9.4
CC(=O)c1cc(F)c(N2CCOCC2)cc1C	-0.2	-0.4	-0.6%[38.3 µM]	4.9	-1.1	-2.8
CCc1ccc(-c2cn3nc(C)c(C)nc3n2)cc1	-2.4	-0.6	-3.2%	-2.7	6.8	1.6
Cc1ccc(-c2nc(S(=O)(=O)c3ccc(C)cc3)c(N3CCCCC3)o2)cc1	nt	0.2	1.9%	nt	nt	34.5
O=C(Nc1ccccc1[N+](=O)[O-])c1csnn1	nt	0.7	-0.8%	nt	nt	-18.1
COC(=O)C1=CN(c2ccc(F)cc2)C=C(C(=O)OC)C1c1cccc(Br)c1	-1.2	-0.4	0.5%	15.1	22.8	18.8
CCOC(=O)c1[nH]c(CSc2nnnn2-c2ccccc2C)c(C(=O)OCC)c1C	0.2	2.4	-1.0%	-3.8	4.1	3.0
CCOc1ccc(C2=C(C=C(C#N)C#N)C(c3ccccc3)c3ccccc3O2)cc1 (stereo not drawn)	-3.6	-0.4	3.1%	-14.3	?	-0.7
O=C(NC1CCCC1)C(=O)N(Cc1cccnc1)C(C(=O)NC1CCCC1)c1ccco1 (stereo not drawn)	-3.1	-0.3	1.6%	9.1	0.9	-9.0
O=C(COC(=O)c1cccs1)NCC1CCCO1 (stereo not drawn)	-0.7	-0.2	2.5%	0.0	6.6	14.2
COc1ccc(-c2ccc3c(c2)S(=O)(=O)c2cccc(C(=O)NCc4cccc(OC(F)(F)F)c4)c2C3=O)cc1OC	-2.1	0.2	4.47µM*	7.5	11.4	-2.7
Cn1nc(C(F)(F)F)c(-c2cccc(C(F)(F)F)c2)c1NC(=O)c1cccnc1	-9.1	0.0	2.7%	nt	-4.9	3.3
O=C(CN1C(=O)c2cccc3cccc(c23)C1=O)N1CCCCCC1	0.7	-0.3	?	0.1	-1.7	2.0
COc1cccc(-c2ncc3ccccc3c2COC(=O)c2ccc(C(F)(F)F)cc2)c1	-2.7	-0.2	5.8%	1.5	-11.6	-12.0
CC(Sc1ncc(C(F)(F)F)cc1Cl)C(=O)NCC1CCCO1 (stereo not drawn)	-3.9	-0.9	-0.2%	0.0	-2.9	11.8
O=C1COc2ccc(C(=O)COC(=O)c3cnc(Cl)c(Cl)c3)cc2N1	0.5	-0.3	0.2%	-25.1	0.9	1.4
COC(=O)CC1C(=O)NCCN1C(=O)c1ccc(Cl)cc1 (stereo not drawn)	-0.3	0.7	3.5%	-9.4	0.9	6.3
CCCCc1c(C)nc2nc(SCc3ccc(Cl)cc3)[nH]n2c1=O	0.2	2.9	-0.7%	nt	-12.9	9.2
CCN1CCN(c2cc3c(cc2F)c(=O)c(S(=O)(=O)c2ccc(OC)cc2)cn3CC)CC1	nt	-0.1	-0.6%	nt	nt	-4.8
CNC(=O)NC(=O)COC(=O)c1ccccc1OCc1ccccc1	2.2	-0.8	0.2%	1.0	6.7	-26.7
COc1ccc(OC)c(NC(=O)COC(=O)/C=C/c2ccco2)c1	8.1	0.7	3.1%	nt	-3.7	1.4
CCOC(=O)N1CCN(Cc2cn3ccccc3n2)CC1	-2.6	0.2	-0.3%	7.5	5.2	-7.5
CC1(C)C=C2[C@H]3CC[C@@H]4[C@@]5(C)CCC(=O)C(C)(C)[C@@H]5CC[C@@]4(C)[C@]3(C)CC[C@@]2(C(=O)O)CC1	-3.4	-0.1	0.8%	2.7	-1.7	-9.0
Cc1ccsc1/C=N\NC(=O)Cn1nnc2ccccc21	-2.5	1.1	0.3%	-15.7	-8.4	28.7
N#Cc1ccc(C(=O)N(Cc2ccccc2)c2ccccc2)cc1	3.8	0.5	2.6%	0.2	-3.1	5.6
COc1ccc(-c2cc(C(=O)N3CCCCCC3)c3ccccc3n2)cc1	-6.7	1.2	2.2%	8.0	-15.3	1.3
CC(=O)Nc1ccc(S(=O)(=O)Nc2ccc(S(=O)(=O)Nc3ncccn3)cc2)cc1	-3.3	0.1	1.0%	8.1	-1.7	3.8
Oc1ccc2ccccc2c1/C=N/c1nc2c(s1)CCCC2	0.0	-1.2	0.2%	2.1	-8.3	2.6
COc1ccccc1-n1c(=O)c2c3c(sc2n(Cc2ccccc2F)c1=O)CN(C(C)=O)CC3	nt	0.4	5.5%	nt	nt	-24.1
CCc1ccc(OCC(=O)NNC(=O)CSc2ncnc3sc(C)c(C)c23)cc1	-1.6	2.8	12.4%[38.3 µM]	5.8	0.8	10.4
Cc1nc2sc(-c3ccccc3)nn2c(=O)c1Br	-2.4	1.2	0.7%	2.7	-6.7	0.5
CCCn1c(=O)c2c(C(F)(F)F)cc(-c3cccs3)nc2n(CCC)c1=O	-4.1	0.7	9.4%	-5.8	3.8	20.4
CCC(=O)Nc1ccc(Cl)c(NC(=S)NC(C)=O)c1	-0.7	-0.5	0.0%	4.2	0.7	-1.8
Cc1ccccc1CN1C(=O)C(O)(CC(=O)c2ccncc2)c2ccccc21 (stereo not drawn)	-6.9	0.2	4.4%	-1.1	-6.6	21.8
CCOC(=O)C1(CC2CC2)CCN(Cc2cn(C)c3ccccc23)CC1	-2.5	-0.1	3.4%	-6.9	-4.5	2.6
COc1cccc(C(=O)NC2CCN(CC(=O)NCc3ccccc3F)CC2)c1	-1.7	0.0	1.7%	8.3	-12.1	1.8
Cc1cccc(NC(=O)/C(C#N)=C/c2ccccc2Cl)n1	-20.7	2.2	-1.9%	0.7	2.7	?
COc1ccc(Cl)cc1NC(=O)CN1CCN(S(=O)(=O)N2CCC(C)CC2)CC1	-0.2	0.6	0.7%	-20.5	-9.6	31.0
Cc1ccc(C(=O)c2c3ccc(N)cc3nn2CCC(N)=O)cc1	4.8	0.7	-1.6%	-6.8	1.4	9.9

An excerpt from above, showing only PINK1 modulator.
SMILES	PINK1 modulator
COc1ccc(Cl)cc1NC(=O)CN1CCN(S(=O)(=O)N2CCC(C)CC2)CC1	0.7%
Cc1ccc(C(=O)c2c3ccc(N)cc3nn2CCC(N)=O)cc1	-1.6%

Later entries.
SMILES	D2 agonist	TRPML1 agonist	PINK1 modulator	CtBP-E1A blk	Six1-Eya2 inh	TRPML1 inh
COC(=O)C1CC(C(=O)OC)C2C(C(=O)OC)CC(C(=O)OC)C12 (stereo not drawn)	-3.0	1.8	-2.4%	-3.7	1.0	-2.4
Cc1ccc(NC2=C(Cl)C(=O)c3ccccc3C2=O)cc1	8.3	0.8	-5.7%	11.5	-9.6	15.5
CN(C)c1cccc(C(=O)NCc2ccccc2Cl)c1	1.4	-0.3	2.5%	-21.2	7.1	-8.7
COC(=O)C1(CCSC)NC(c2ccc(OC)cc2OC)C2C(=O)N(c3cccc(C(C)=O)c3)C(=O)C21 (stereo not drawn)	-5.2	0.1	1.0%	-8.5	2.2	12.9
O=S(=O)(Nc1ccccc1C(F)(F)F)c1ccc(N2CCCCS2(=O)=O)cc1	nt	-0.1	2.0%	nt	nt	20.8
C/C=C/C=N/Nc1nc(C)cc(=O)[nH]1	-0.7	-0.5	1.1%	-4.8	-4.1	-5.3
O=C(O)/C=C\c1ccccc1Oc1ccc(F)cc1	-0.4	0.1	-1.7%	-17.8	5.1	-5.4
COc1cc(C2NC(=O)N(C)C3=C2C(=O)N(c2ccccc2)C3)ccc1O (stereo not drawn)	nt	1.6	3.3%	nt	nt	1.5
CCOC(=O)c1ccc(S(=O)(=O)NNC(=O)COc2ccccc2C)cc1	1.4	-0.5	1.3%	26.3	0.5	21.7
CCOC(=O)CSc1nc2ccccc2c(=O)n1CCc1ccc(OC)c(OC)c1	nt	2.5	3.8%	nt	nt	-17.3
CCOC(=O)C1C(=O)C=C(c2cccs2)CC1c1ccccc1 (stereo not drawn)	-2.6	5.2	-0.1%	-1.6	-7.9	-2.6
